High-throughput results: PubChem BioAssay, Johns Hopkins Ion Channel Center
KCNQ2 inh – KCNQ2 potassium channel inhibitors, primary screen, cell-based, CHO-K1, FluxOR thallium flux, B-score (AID 2156) | O88943 | 20 min; stronger effect = lower value; only compounds with negative scores are shown here; some inactives read as strong as hits | B-score at 10 µM | actives 1.1% (n = 310,000);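 active = fluorescence ratio B-score at most minus 3 library SDs, with starting brightness B-score within 2 library SDs, cut at about -5.5 in these data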
Target sequence (O88943 whole entry, looked up): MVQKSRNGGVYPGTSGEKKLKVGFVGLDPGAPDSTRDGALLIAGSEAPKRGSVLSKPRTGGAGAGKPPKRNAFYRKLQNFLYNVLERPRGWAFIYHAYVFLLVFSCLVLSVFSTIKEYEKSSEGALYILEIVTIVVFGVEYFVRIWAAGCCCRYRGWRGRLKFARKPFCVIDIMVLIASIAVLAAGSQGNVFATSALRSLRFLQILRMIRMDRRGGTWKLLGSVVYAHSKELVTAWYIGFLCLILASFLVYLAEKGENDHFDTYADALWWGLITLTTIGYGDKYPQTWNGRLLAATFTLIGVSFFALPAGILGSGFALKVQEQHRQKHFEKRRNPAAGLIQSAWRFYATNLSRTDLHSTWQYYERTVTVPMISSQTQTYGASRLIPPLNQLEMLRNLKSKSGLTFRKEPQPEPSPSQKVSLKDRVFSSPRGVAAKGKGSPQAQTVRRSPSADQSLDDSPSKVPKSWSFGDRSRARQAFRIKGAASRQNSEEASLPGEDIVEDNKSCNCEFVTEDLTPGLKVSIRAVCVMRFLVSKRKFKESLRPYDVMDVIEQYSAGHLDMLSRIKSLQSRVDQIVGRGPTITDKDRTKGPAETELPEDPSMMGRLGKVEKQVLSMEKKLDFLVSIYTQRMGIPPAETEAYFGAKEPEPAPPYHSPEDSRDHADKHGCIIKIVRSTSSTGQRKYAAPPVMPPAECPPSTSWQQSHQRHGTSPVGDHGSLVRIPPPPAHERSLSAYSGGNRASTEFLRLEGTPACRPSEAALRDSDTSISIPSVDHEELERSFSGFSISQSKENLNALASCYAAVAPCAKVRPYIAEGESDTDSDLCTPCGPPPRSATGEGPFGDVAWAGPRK
KCNQ2 inh baseline – further read-out of KCNQ2 inh, marked with its call; B-score; measured here: initial fluorescence intensity artifact check;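 brightness before thallium and not channel activity; 0 = typical well and far values either way flag optical interference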
Active calls of the source: *; i = inactive.

SMILES	KCNQ2 inh	KCNQ2 inh baseline
CC(C)(C)OC(=O)C(C)(C)O/N=C(\C(=O)O)c1csc(N)n1	i	0.67
CCCCCCn1c(=O)c(-c2ccccc2)c(O)c2ccccc21	i	0.19
CC(OC(=O)c1ccc(Cl)c(S(=O)(=O)N2CCc3ccccc32)c1)C(=O)Nc1ncc(Cl)cc1Cl (configuration not stated)	i	0.15
COc1cc(C(=O)N/N=C/c2ccc(OC(=O)c3cccc(C)c3)cc2)ccc1O	i	0.07
COc1cc(NC(=O)c2ccc(C)cc2C)ccc1NC(=O)c1cccs1	i	0.45
Cc1ccc(C(=O)N/C(=C\c2cn(C)c3ccccc23)C(=O)N2CCOCC2)cc1	-6.3*	-1.5*
CCCCNc1c(-c2ccc(SC(C)CC)cc2)nc2ccccn12 (configuration not stated)	-7.1*	-1.8*
COc1ccc(NC2c3ccccc3C(=O)N2c2cccnc2)cc1 (configuration not stated)	i	-2.1
CS(=O)(=O)c1ccc(NC(=O)C2CC(=O)N(c3ccc4c(c3)OCCO4)C2)cc1 (configuration not stated)	i	0.14
COc1cccc(N(C(=O)Cc2cccs2)C(C(=O)NC2CCCC2)c2ccncc2)c1 (configuration not stated)	i	2.1
Cc1ccc(OCCCC(=O)N2CCOCC2)cc1	i	0.05
C=CCN(C(=O)CCC(=O)O)C1CC(=O)N(c2ccc(OC)cc2)C1=O (configuration not stated)	i	-1.3
COc1ccc(CNC(=O)COc2ccc([N+](=O)[O-])cc2)cc1	i	3.4
COC(=O)COc1ccc2oc(=O)cc(-c3cc4ccccc4o3)c2c1	i	-1.4
COc1ccc(O)c(C2=Nc3ccccc3N=C(c3cccs3)C2)c1	i	1.2
CCCCN(C)C(=O)C1CCC(CNS(=O)(=O)c2ccc3c(c2)CC(C)N3C(C)=O)CC1 (configuration not stated)	i	-0.8
CC(C)CCCC(C)CCOC(=O)CN1CCCC1 (configuration not stated)	i	0.9
CC(c1ccccc1)n1cnc2ccccc21 (configuration not stated)	i	-0.37
COCCn1nnnc1SCC(=O)c1ccccc1	i	0.8
CC(C)Oc1cccc(C(=O)Nc2ccc(CN3CCOCC3)cc2)c1	i	-2.1
COC(=O)C(O)(CC(=O)Nc1ccc(Cl)cc1F)C(F)(F)F (configuration not stated)	i	1.1
O=C1CCC[C@@H]2Cc3[nH]c4c(Cl)ccc(Cl)c4c3[C@@H]3CCN1[C@H]23	i	-0.01
Cc1cccc(C)c1NC(=O)N1C2CCC1CC(O)(c1cccnc1)C2 (configuration not stated)	i	1.4
CSc1ccc(CNc2nc3ccccc3n3cnnc23)cc1	i	0.22
Cc1ccc(NNC(=O)c2cc(C)on2)c(C)c1	i	2.5

For convenience, some entries already given:
SMILES	KCNQ2 inh	KCNQ2 inh baseline
COC(=O)C(O)(CC(=O)Nc1ccc(Cl)cc1F)C(F)(F)F (configuration not stated)	i	1.1
O=C1CCC[C@@H]2Cc3[nH]c4c(Cl)ccc(Cl)c4c3[C@@H]3CCN1[C@H]23	i	-0.01
Cc1cccc(C)c1NC(=O)N1C2CCC1CC(O)(c1cccnc1)C2 (configuration not stated)	i	1.4
CSc1ccc(CNc2nc3ccccc3n3cnnc23)cc1	i	0.22
Cc1ccc(NNC(=O)c2cc(C)on2)c(C)c1	i	2.5

As entered above.
Under KCNQ2 inh baseline, CS(=O)(=O)c1ccc(NC(=O)C2CC(=O)N(c3ccc4c(c3)OCCO4)C2)cc1 (configuration not stated) has the entry 0.14
Under KCNQ2 inh baseline, CCCCCCn1c(=O)c(-c2ccccc2)c(O)c2ccccc21 has the entry 0.19
Under KCNQ2 inh baseline, CC(C)(C)OC(=O)C(C)(C)O/N=C(\C(=O)O)c1csc(N)n1 has the entry 0.67

Carrying on.
SMILES	KCNQ2 inh	KCNQ2 inh baseline
CN(C)c1ccc(/C=N\NC(=O)c2ccc(Cn3cc(Cl)cn3)cc2)cc1	i	-0.06
COc1cccc(CN(CC(=O)NC2CCCC2)C(=O)c2csnn2)c1	i	-0.22
C=CCOC(=O)C1=C[C@@H](c2ccccc2)C[C@@H](OCc2ccc(CO)cc2)O1	i	2.5
CCOc1ccc(S(=O)(=O)Nc2ccc3c(c2)c2c(n3S(=O)(=O)c3ccc(OCC)cc3)CCCC2=O)cc1	i	0.82
Cc1cc(C)c(S(=O)(=O)c2ccccc2C)c(SCC(C)C)n1	i	-0.04
Cc1cnc(NC(=O)CSc2nnc(COc3c(C)cccc3C)o2)s1	i	-0.56
O=C(Nc1ccc2c(c1)OCCO2)c1cccnc1	i	0.18
COc1ccccc1C(=O)Nc1ccccc1N1CCOCC1	i	-0.31
O=C(CN1CCC(Cc2ccccc2)CC1)NC(=O)NCc1ccccc1	i	1.1
Clc1cccc(Cl)c1CSc1nnc2ccccn12	i	0.87
CCC(C)[C@H](NC(=O)NCc1ccc(Cl)cc1)C(=O)OC (some centres not stated)	i	0.01
COc1ccc(C2=Nn3c(nnc3C(F)(F)F)SC2)cc1	i	0.02
Cn1nnnc1SCc1cccc2ccccc12	i	-1.6
C#CCNC(=O)C1=C[C@@H](c2cn(C(C)=O)c3ccccc23)C[C@@H](OCc2ccc(CO)cc2)O1	i	-1.1
O=C(O)c1cc(NN=C2CCN(Cc3ccccc3)CC2)ccc1Cl	i	0.68
NC(=O)c1c(NC(=S)Nc2ccccc2)sc2c1CCCC2	i	-0.15
Cc1ccc2[nH]c(C(=O)N/N=C/c3ccccc3O)c(C)c2c1	i	-0.17
N#C/C(=C\c1ccc(Cl)cc1)c1nc2ccccc2o1	i	-0.87
CC(C(=O)Nc1ccc2c(c1)OCO2)N(c1ccc(Cl)cc1)S(C)(=O)=O (configuration not stated)	i	0.32
COc1cccc(C(C(=O)NC2CCCCC2)N(C(=O)c2ccco2)c2ccc(-n3cnnn3)c(C)c2)c1 (configuration not stated)	i	0.89
CC(C)(C)C1CCC(=NNC(=S)NCc2ccccc2)CC1 (configuration not stated)	i	-0.2
CC(=O)c1cccc(NC(=S)NC(=O)Cc2ccc(Cl)cc2)c1	i	0.64
CCOC(=O)COc1ccc(S(=O)(=O)Nc2ccc(C)cc2)cc1	i	2.9
COc1ccc(CCNC(=O)CSc2nc3[nH]ncc3c(=O)n2-c2ccc(Br)cc2)cc1OC	i	1.4
Nc1ccc(-c2cc3ccccc3oc2=O)cc1	i	-0.51
SMILES	KCNQ2 inh	KCNQ2 inh baseline
COc1cc2nc(SCc3c(C)noc3C)n(CCC3=CCCCC3)c(=O)c2cc1OC	i	-1.6
N#Cc1ccc(-c2cccnc2)nc1SCC(=O)Nc1sc2c(c1C#N)CCC2	i	-1.7
C#Cc1ccc([C@H]2C=C(C(=O)NCc3nc4ccccc4[nH]3)O[C@@H](OCC)[C@@H]2CCCO)cc1	i	-1.6
O=C(O)CN(c1ccccn1)S(=O)(=O)c1ccccc1	i	0.1
CCOC(=O)CN1C(=O)c2ccccc2C1=O	i	1.1
COc1ccccc1NC(=O)COc1ccccc1C(=O)c1cnn(-c2ccccc2)c1	-6*	-0.07*
CN(c1ccccc1C(=O)Nc1ccc2ccccc2c1)S(C)(=O)=O	i	-0.49
CCCC(OC(=O)CC1Sc2ccccc2NC1=O)C(=O)NCc1ccco1 (configuration not stated)	i	-0.1
Cc1ccc(N(CC(=O)NCC2CCCO2)C(=O)CCC(=O)Nc2ccccn2)cc1 (configuration not stated)	i	0.68
Cc1cc(C)c(S(=O)(=O)NCCCn2ccnc2)c(C)c1	i	4.1
CCOC(=O)CSc1nc2sc3c(c2c(=O)[nH]1)CC(C)(C)OC3	i	1.4
O=C(OCc1ccccc1F)c1cc2ccccc2cc1O	i	-0.07
O=C(N/N=C/C=C\c1ccco1)c1cccs1	i	-1
COc1cccc(C(=O)Nc2nnc(-c3ccc(Cl)cc3)o2)c1	i	1.6
Cc1ccc(S(=O)(=O)NCC2CCC(C(=O)N3CCOCC3)CC2)cc1 (configuration not stated)	i	-1.2
Cc1cc(-n2c(C)cc(C(=O)CSc3nc(N)cc(=O)[nH]3)c2C)no1	i	0.43
COC1=NS(=O)(=O)c2ccccc21	i	-0.31
CC(=O)Oc1c(Cl)cc(Cl)cc1/C=C/c1ccc2ccccc2n1	i	0.03
COc1ccc(NC2=CC(c3ccc(OC)c(OC)c3)N(c3ccc(OC)cc3)C2=O)cc1 (configuration not stated)	i	0.72
CCOCCCNC(=S)N(CCO)Cc1cc2cc3c(cc2[nH]c1=O)OCCO3	i	-0.12
S=C(Nc1cc(Cl)ccc1Oc1ccccc1)N1CCN(c2ccccn2)CC1	i	-0.23
CCOC(=O)CNS(=O)(=O)c1c(C)noc1C	i	1.3
Cc1c(NC(=O)c2ccc(Cl)c(S(=O)(=O)N3CCOCC3)c2)c(=O)n(-c2ccccc2)n1C	i	-0.2
COc1cccc(NC(=O)C2Cc3ccccc3CN2C(=O)c2ccco2)c1 (configuration not stated)	i	-0.28
CCOc1ccccc1N1CCN(Cc2cc3c(cc2[N+](=O)[O-])OCO3)CC1	i	-0.05
SMILES	KCNQ2 inh	KCNQ2 inh baseline
CCc1ccc(NC(=S)Nc2ccc(S(=O)(=O)Nc3ncccn3)cc2)cc1	i	1
CC(C)(C)C1CCC(C(=O)OCC(=O)N2CCN(C(=O)c3ccco3)CC2)CC1 (configuration not stated)	i	0.08
CCC(C)(C)NC(=O)Cn1c(-c2ccccc2)cc(C(C)=O)c1C	i	-0.02
COc1cc(OC)c(OC)cc1/C=N/NC(=S)NCC1CCCO1 (configuration not stated)	i	0.18
CCn1c(SCC(=O)Nc2cc(NC(C)=O)ccc2OC)nnc1-c1cccnc1	i	-0.57
Cc1ccc(-c2c(NCCc3ccccc3)c(=O)c2=O)cc1	i	0.1
CNc1nc(-c2ccccc2)nc(-c2ccccc2)c1C#N	i	-0.42
CN(C)S(=O)(=O)c1ccc(C(=O)OCn2nnc3ccccc3c2=O)cc1	i	-1.3
CSc1ccc(/C=C(\NC(=O)c2ccc(C)cc2)C(=O)NN)cc1	i	-0.44
O=C(c1ccccc1)N1CCN(CC(O)COc2ccc(Br)cc2)CC1 (configuration not stated)	i	0.02
Cc1ccc[n+](CC(=O)Nc2nc3ccccc3s2)c1	i	-0.46
CN(C)c1ccc(/C=C(\NC(=O)c2ccccc2)C(=O)N/N=C/c2ccc(C(=O)O)cc2)cc1	i	-0.93
Cn1c(Cc2cccs2)nnc1SCC(=O)Nc1ccc(F)cc1F	i	1.5
CN(Cc1cnn(C)c1)C(=O)C1CCC(=O)N(Cc2ccc(Cl)cc2)C1 (configuration not stated)	i	-0.49
COc1ccc(-c2nn(-c3ccccc3)cc2C(=O)N(C)CC(=O)Nc2ccc(N3CCOCC3)cc2)cc1	i	1.4
CSc1ccccc1NC(=O)C1CC(c2ccccc2O)=NO1 (configuration not stated)	i	0.24
CCCc1sc(N2CCCC(C(N)=O)C2)nc1-c1ccccc1 (configuration not stated)	i	-0.12
O=C(Nc1nc2ccccc2[nH]1)c1ccc(F)cc1	i	-0.37
COc1ccc(CCNC(=O)C2CC(c3ccc(C(F)(F)F)cc3)=NO2)cc1 (configuration not stated)	i	0.04
Cc1cccc(NC(=O)c2cc(-c3ccccn3)nc3ccccc23)c1C	i	-0.97
COc1cccc(/C(O)=C2/C(=O)C(=O)N(Cc3ccco3)C2c2ccncc2)c1 (configuration not stated)	i	-1.7
COc1ccccc1CNC(=O)COC(=O)/C=C/c1ccc(OC(F)F)c(OC)c1	i	0.7
Cc1cccc(C(=O)N[C@H](C(=O)NCCc2ccc(Cl)cc2)C(C)C)c1	i	-0.31
O=C(O)CN1C(=O)C2(OCCO2)c2cc(Br)ccc21	i	1.4
CCN(CC)c1ccc(Nc2nc(N3CCOCC3)c3ccccc3n2)cc1	i	-0.61
SMILES	KCNQ2 inh	KCNQ2 inh baseline
N#Cc1ccc(-c2ccccc2)nc1SCC(=O)c1cc2ccccc2oc1=O	i	0.02
COc1ccc(Br)cc1CN(C)CC(=O)Nc1cc(Cl)cc(Cl)c1	i	-0.36
CCC(CC)c1nnc(NC(=O)c2cc([N+](=O)[O-])ccc2N2CCCCC2)s1	i	-5.5
CCn1c(CN2c3ccccc3Sc3ccccc32)n[nH]c1=S	i	0.82
CC[C@H]1CC2CN3CCc4c([nH]c5c([C@H]6C[C@H]7[C@H](CC)CN(C)[C@@H](Cc8c6[nH]c6ccccc86)[C@H]7C(=O)OC)c(OC)ccc45)C(C(=O)OC)(C2)C13	-7.5*	-1.7*
O=C(N/N=C/c1ccccc1[N+](=O)[O-])C(=O)N1CCCC1	i	0.34
COc1cccc(-c2ccc(NC(=O)C3CCCN(Cc4cnn(C(C)C)c4)C3)cc2)c1 (configuration not stated)	i	-0.04
COc1ccc(-c2nc(C#N)c(N3CCN(c4cccc(Cl)c4)CC3)o2)cc1OC	i	-0.87
COc1ccc(NC2CCCN(C(=O)CN3CCOC3=O)C2)cc1 (configuration not stated)	i	1.4
COc1ccc2cc(CCl)c(Cl)nc2c1	i	-0.27
CN(C)CCOc1ncnc2c1oc1ccccc12	i	-0.18
Cc1nc2c(oc3ccccc32)c(=O)o1	i	-0.36
CC(C)CNC(=O)c1ccc(Cl)c(Cl)c1	i	-0.28
CCOC(=O)c1[nH]c(C)c(C(=O)Nc2ccc3c(c2)OCCO3)c1C	i	0.78
CCOC(=O)N1CCC(N(CCOC)C(=O)Nc2ccc(CC)cc2)CC1	i	0.72
O=C(CNC1CC1)Nc1cc(C(F)(F)F)ccc1Cl	i	1.3
CN(C)/C=C(\C(=O)c1ccccc1)c1nnnn1-c1ccc(F)cc1	i	-0.04
Cc1ccc(-n2c(C)nc3c(cnn3-c3ccc(F)cc3)c2=O)cc1	i	-0.27
C#CC[N+]1(CC#Cc2cccc(C)c2)CCCCC1	i	-1.4

Four entries drawn at random from the list so far, as already listed:
SMILES	KCNQ2 inh	KCNQ2 inh baseline
COc1ccc(NC2c3ccccc3C(=O)N2c2cccnc2)cc1 (configuration not stated)	i	-2.1
CCOC(=O)COc1ccc(S(=O)(=O)Nc2ccc(C)cc2)cc1	i	2.9
CN(Cc1cnn(C)c1)C(=O)C1CCC(=O)N(Cc2ccc(Cl)cc2)C1 (configuration not stated)	i	-0.49
Cc1ccc(-c2c(NCCc3ccccc3)c(=O)c2=O)cc1	i	0.1

Only part of the results is shown (hit frequency here may not be typical).
